# YB-1 expr inh – YB-1 expression inhibition; U2OS, qRT-PCR YB-1 vs CDIP delta delta Cp, 16 h; active compounds read high; zero = DMSO, each unit about twofold; delta delta Cp (YB-1 minus CDIP) (test concentration not listed); AID 434959; hit rate 0.37% among 30,000;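 active means delta delta Cp rounded down to an integer at or above 3, about 3 SD of DMSO wells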;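 further: higher means less YB-1 transcript or more CDIP transcript relative to DMSO; stock transfer was 100 nL into about 100 µL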
# Hedgehog inh – blocks Sonic Hedgehog signaling; Shh-LIGHT2 Gli-luciferase reporter, 30 h; inhibition, % (concentration not given with the values); hit rate 2.1% among 22,000;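 active means replicate mean of 65% or more; inconclusive means mean lower but half the replicates past it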;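 further: pathway switched on by Shh-conditioned medium diluted 1 in 25 in low serum; 100 nL library stock added to about 40 µL; 0% = median of neutral wells and 100% = positive control level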
# PD-1 reversal – activators reversing PD-1 mediated T-cell inhibition. primary human CD4 T cells, PD-L1 beads, CellTiter-Glo 96 h. AID 2316. 29,000 tested, under 10 active. activation, % (no concentration beside the values);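 active means replicate mean of 50% or more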;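 further: 0% = median vehicle wells and 100% = positive control; 100 nL library stock added to about 50 µL; numbers are from one replicate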
# MITF inh – MITF inhibition. TRPM1 promoter luciferase, luminescence, 24 h. inhibition, % (no concentration beside the values). hit rate 0.28% among 37,000. AID 2240;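 active means most replicates at 85% or more, or half of them and the mean; inconclusive means half reach 85% but not the mean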;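 further: human melanocyte line stably carrying TRPM1 promoter luciferase reporter; 0% = vehicle wells and 100% = a positive control; the first replicate is given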
# Numbers without * were called inactive; ? = inconclusive; . = not tested or not shown. This is a subset; rates above refer to the full screens.
SMILES,YB-1 expr inh,Hedgehog inh,PD-1 reversal,MITF inh
CS(=O)(=O)N(CC(=O)NC1CCCCCC1)c1ccc(F)cc1,.,.,-0.3,-0.5
C[C@H]1CN([C@@H](C)CO)C(=O)c2cccc(NC(=O)C3CCOCC3)c2O[C@H]1CN(C)Cc1ccc(C(=O)O)cc1,0.4,7.6,.,-2.6
C[C@H](CO)N1C[C@H](C)[C@H](CN(C)C(=O)Nc2ccccc2)Oc2c(NS(=O)(=O)c3cccs3)cccc2C1=O,-0.0735,-19.2,-3.2,15.4
O=S(=O)(/C=C/c1ccccc1)Nc1ccccc1,0.0227,60.9,0.0,-5.9
C[C@@H]1CN([C@H](C)CO)C(=O)c2cccc(NC(=O)c3cnccn3)c2O[C@H]1CN(C)Cc1ccc(C(=O)Nc2ccccc2N)cc1,-0.333,.,-0.4,10.6
O=C(CSc1nnc(-c2ccccc2)c(-c2ccccc2)n1)C1CC1,.,.,-1.5,44.4
COC(=O)c1ccccc1NC(=O)C(C)N(c1ccc(Cl)cc1)S(C)(=O)=O (stereo not drawn),.,.,-0.2,0.3
Cc1noc(C)c1S(=O)(=O)Nc1ccc2c(c1)C(=O)N([C@@H](C)CO)C[C@@H](C)[C@H](CN(C)S(=O)(=O)c1ccc(Cl)cc1)O2,-0.338,-5.5,.,-0.4
Cc1ccccc1OCC(=O)Nc1cccc(-c2nc3ccccc3s2)c1,.,.,1.6,-0.6
Cc1ccccc1OCC(=O)Nc1cccc(-c2nnc(-c3ccco3)o2)c1,-0.00138,.,-0.8,-26.1
COc1cccc(OCC(=O)Nc2cccc(-c3nnc(-c4ccccc4)o3)c2)c1,.,.,0.3,-26.3
COc1ccc(NC(=O)Nc2ccc3c(c2)C(=O)N([C@H](C)CO)C[C@@H](C)[C@H](CN(C)C)O3)cc1,0.225,.,.,0.4

# A second format for some results above.
O=C(CSc1nnc(-c2ccccc2)c(-c2ccccc2)n1)C1CC1
  YB-1 expr inh = .; Hedgehog inh = .; PD-1 reversal = -1.5; MITF inh = 44.4
COC(=O)c1ccccc1NC(=O)C(C)N(c1ccc(Cl)cc1)S(C)(=O)=O (stereo not drawn)
  YB-1 expr inh = .; Hedgehog inh = .; PD-1 reversal = -0.2; MITF inh = 0.3
Cc1noc(C)c1S(=O)(=O)Nc1ccc2c(c1)C(=O)N([C@@H](C)CO)C[C@@H](C)[C@H](CN(C)S(=O)(=O)c1ccc(Cl)cc1)O2
  YB-1 expr inh = -0.338; Hedgehog inh = -5.5; PD-1 reversal = .; MITF inh = -0.4

# Following part:
SMILES,YB-1 expr inh,Hedgehog inh,PD-1 reversal,MITF inh
Cc1ccc(S(=O)(=O)Nc2ccc3c(c2)CC(=O)N([C@H](C)CO)C[C@@H](C)[C@H](CN(C)S(=O)(=O)c2cn(C)cn2)O3)cc1,0.171,-43.7,1.0,-0.1
CC(C)NC(=O)N(C)C[C@H]1Oc2ccc(NC(=O)Nc3ccc(C(F)(F)F)cc3)cc2C(=O)N([C@@H](C)CO)C[C@H]1C,0.295,.,-0.4,4.1
CCN1C(=O)C=CC1=O,-0.26,-46.1,3.9,-6.7
C[C@H](CO)N1C[C@H](C)[C@H](CN(C)Cc2ccncc2)Oc2c(NC(=O)Nc3ccc4c(c3)OCO4)cccc2C1=O,0.805,-20.8,1.0,-15.1
Cc1cc(=O)[nH]c(SCC(=O)c2ccc(F)cc2)n1,-0.0609,8.6,0.0,-7.5
Cc1c(NC(=O)COc2ccc(Br)cc2)cccc1-c1nc2cc(Cl)ccc2o1,.,.,-8.7,-21.3
Cc1ccc(S(=O)(=O)Nc2ccc3c(c2)CC(=O)N([C@@H](C)CO)C[C@@H](C)[C@@H](CN(C)C(=O)Nc2cccc4ccccc24)O3)cc1,-0.0144,0.4,2.1,-7.6
Cc1ccc(C)c(S(=O)(=O)NC(Cc2c[nH]c3ccccc23)C(=O)O)c1 (stereo not drawn),.,.,2.0,-6.5
COc1ccc(OCC(=O)Nc2cccc(-c3cnc4ccccc4n3)c2)cc1,.,.,-1.3,-90.3
COc1ccc(CN(C)C[C@H]2Oc3ccc(NC(=O)Cc4ccccc4)cc3CC(=O)N([C@@H](C)CO)C[C@H]2C)cc1,0.137,.,-1.4,-3.6
CNC[C@@H]1Oc2ccc(NC(=O)C3CC3)cc2C(=O)N([C@H](C)CO)C[C@@H]1C,-0.429,.,.,0.7
C[C@H](CO)N1C[C@H](C)[C@H](CN(C)C(=O)Nc2cccc3ccccc23)Oc2ccc(NS(=O)(=O)c3ccc(Cl)cc3)cc2CC1=O,0.218,27.5,0.9,-8.3
COc1c(C)cccc1C(=O)N1CCN(c2ccc([N+](=O)[O-])c(NCc3ccco3)c2)CC1,.,.,-0.2,39.3
Cc1ccc(S(=O)(=O)N(C)C[C@H]2Oc3c(NC(=O)Nc4ccc(F)cc4)cccc3C(=O)N([C@H](C)CO)C[C@H]2C)cc1,-0.42,-1.5,-2.2,7.7
Cc1noc(C)c1S(=O)(=O)N(C)C[C@H]1OCCCC[C@@H](C)Oc2ccc(NC(=O)NC3CCCCC3)cc2C(=O)N([C@H](C)CO)C[C@@H]1C,-0.0608,0.8,.,-12.7
CNC[C@@H]1Oc2ccc(NC(=O)c3ccncc3)cc2C(=O)N([C@H](C)CO)C[C@@H]1C,0.172,21.6,-0.4,-4.9
Cc1ccc(NC(=O)C2Cc3ccccc3CN2S(=O)(=O)c2ccc(C)cc2)cc1 (stereo not drawn),.,.,0.0,38.7
CCCC1=CC(=O)C(O)C1O (stereo not drawn),1.15,6.4,0.7,-12.5
COc1ccc(NC(=O)N(C)C[C@H]2Oc3ccc(NS(=O)(=O)c4ccc(OC)cc4)cc3C(=O)N([C@H](C)CO)C[C@@H]2C)cc1,0.0805,.,0.2,11.6
Cc1c(Cl)cccc1NC(=O)COc1ccc(S(=O)(=O)N2CCOCC2)cc1,.,.,-6.5,-7.8
CC(C)NC(=O)N(C)C[C@H]1Oc2ccc(NC(=O)Cc3ccccc3)cc2C(=O)N([C@H](C)CO)C[C@H]1C,-0.0935,20.3,-0.7,-3.9
O=C(N[C@H](CO)[C@H](O)c1ccc([N+](=O)[O-])cc1)C(Cl)Cl,0.356,-41.5,.,8.1
COC(=O)c1ccc(NC(=O)CN(C)S(=O)(=O)c2ccccc2)cc1,.,.,1.0,2.8
C[C@@H]1CN([C@@H](C)CO)C(=O)c2cccc(NC(=O)c3cnccn3)c2O[C@H]1CN(C)Cc1ccc(Cl)c(Cl)c1,0.247,-11.7,-8.2,36.0
C[C@@H]1CN([C@H](C)CO)C(=O)c2cc(NS(=O)(=O)c3ccc(Cl)cc3)ccc2O[C@H]1CN(C)Cc1ccc(C(F)(F)F)cc1,0.248,14.9,-1.0,-15.8
Cc1ccc(S(=O)(=O)Nc2ccc3c(c2)CC(=O)N([C@@H](C)CO)C[C@@H](C)[C@@H](CN(C)Cc2ccc(C(=O)Nc4ccccc4N)cc2)O3)cc1,0.289,.,1.1,11.2
C[C@@H]1CN([C@H](C)CO)C(=O)c2cc(NC(=O)Cc3cn(C)c4ccccc34)ccc2O[C@H]1CN(C)Cc1ccc(C(=O)O)cc1,0.103,.,2.3,8.8
C[C@@H]1CN([C@@H](C)CO)C(=O)c2cccc(NC(=O)Nc3ccc4c(c3)OCO4)c2O[C@@H]1CN(C)Cc1ccc(-c2ccccc2)cc1,-0.14,45.1,-5.2,-8.0
C[C@@H]1CN([C@H](C)CO)C(=O)c2cccc(NC(=O)Nc3cccc4ccccc34)c2O[C@@H]1CN(C)S(=O)(=O)c1cn(C)cn1,-0.274,6.2,.,-7.0
CC(Oc1ccc(Cl)cc1Cl)C(=O)NC(=S)Nc1cccc(NC(=O)c2cccs2)c1 (stereo not drawn),.,.,0.8,-16.2
Cc1noc(C)c1NC(=O)N(C)C[C@H]1Oc2ccc(NS(=O)(=O)c3cccs3)cc2C(=O)N([C@H](C)CO)C[C@H]1C,0.199,-10.5,0.4,-9.2
COc1ccc(S(=O)(=O)N(C)C[C@@H]2Oc3ccc(NC(=O)Nc4c(C)noc4C)cc3C(=O)N([C@@H](C)CO)C[C@H]2C)cc1,0.755,-31.2,-0.5,-6.3
CCOC(=O)c1nc(C)nc(Sc2n[nH]c(-c3cc(C(F)(F)F)cc(C(F)(F)F)c3)n2)c1C,0.254,21.2,1.5,14.1
C[C@@H]1CN([C@H](C)CO)C(=O)Cc2cc(NC(=O)CCN3CCOCC3)ccc2O[C@@H]1CN(C)Cc1ccc(Oc2ccccc2)cc1,-0.0868,35.5,0.1,-6.0
O=C(CSc1ncc(-c2ccccc2)nn1)c1ccc(Br)cc1,.,.,1.2,-14.6
COc1cc(OC)cc(-c2nnc(SCC(=O)Nc3ccc(I)cc3)o2)c1,.,.,-4.6,-28.4
CCCc1c(C(=O)O)c(O)cc2c1C(=O)c1c(O)cccc1C2=O,0.00461,0.3,1.6,8.3
CCOC(=O)c1cnn(-c2ccccc2)c1NC(=O)C(C)(C)C,0.17,10.1,-0.1,8.8
COc1ccc(S(=O)(=O)N(C)C[C@@H]2Oc3c(NC(=O)NC(C)C)cccc3C(=O)N([C@@H](C)CO)C[C@@H]2C)cc1,-0.225,27.5,2.5,12.0
C[C@H]1CN([C@@H](C)CO)C(=O)Cc2cc(NC(=O)Nc3ccc(C(F)(F)F)cc3)ccc2O[C@@H]1CN(C)Cc1ccc(C(F)(F)F)cc1,0.121,-2.3,-2.5,0.4
CCc1c(O)nc(SC2CC(=O)N(c3ccc(F)c(Cl)c3)C2=O)[nH]c1=O (stereo not drawn),.,.,0.4,-7.9
CC(C)NC(=O)N(C)C[C@H]1Oc2ccc(NC(=O)Nc3ccc(C(F)(F)F)cc3)cc2C(=O)N([C@H](C)CO)C[C@H]1C,0.418,-0.9,-2.5,-2.7
CCOC(=O)c1c(-c2ccc(Cl)cc2)csc1NC(=O)C1CCCCC1C(=O)O (stereo not drawn),.,.,-1.1,1.6
C[C@H]1CN([C@@H](C)CO)C(=O)c2cccc(NC(=O)Nc3ccccc3)c2O[C@H]1CN(C)Cc1ccc(C(=O)O)cc1,-0.453,-14.8,1.1,1.7
CC(C)NC(=O)Nc1ccc2c(c1)C(=O)N([C@H](C)CO)C[C@@H](C)[C@@H](CN(C)Cc1ccc(-c3ccccc3)cc1)O2,-0.103,66.5*,-0.3,-5.2
CC(=O)Nc1ccc(S(=O)(=O)CCO)cc1,-0.922,.,0.2,16.0
C[C@H](CO)N1C[C@H](C)[C@H](CN(C)C)Oc2ccc(NC(=O)Nc3ccc4c(c3)OCO4)cc2CC1=O,-0.307,32.4,2.2,-2.7
O=C1OC(c2ccc(-c3ccccc3)cc2)=N/C1=C\c1ccco1,0.151,.,1.6,-3.8
COC(=O)c1ccccc1C(=O)c1ccccc1,-1,.,1.8,8.4
CN(CC(=O)Nc1ccccc1C#N)S(=O)(=O)c1ccc2ccccc2c1,.,.,0.2,18.1
Cc1noc(C)c1NC(=O)Nc1cccc2c1O[C@@H](CN(C)Cc1ccc(-c3ccccc3)cc1)[C@H](C)CN([C@H](C)CO)C2=O,-0.0589,15.2,-3.5,38.9
C[C@H](CO)N1C[C@H](C)[C@@H](CN(C)C(=O)Nc2ccccc2)Oc2c(NC(=O)c3nc4ccccc4s3)cccc2C1=O,0.053,?,-1.9,5.9
c1csc(-c2cc(N3CCCCC3)c3ccccc3n2)c1,-0.0134,2.9,-0.6,-12.1
Cc1noc(C)c1S(=O)(=O)N(C)C[C@@H]1OCCCC[C@@H](C)Oc2ccc(NC(=O)Cc3ccccc3)cc2C(=O)N([C@H](C)CO)C[C@@H]1C,-0.243,5.2,-1.4,-7.2
CNC[C@H]1OCCCC[C@@H](C)Oc2ccc(NC(=O)Nc3ccc(F)cc3)cc2C(=O)N([C@H](C)CO)C[C@@H]1C,-0.618,-11.0,0.5,-0.9
C[C@@H]1CN([C@H](C)CO)C(=O)c2cccc(NS(=O)(=O)c3ccccc3)c2O[C@@H]1CN(C)Cc1ccccc1,0.151,33.4,0.0,-18.0
Cc1noc(C)c1NC(=O)Nc1ccc2c(c1)C(=O)N([C@H](C)CO)C[C@H](C)[C@@H](CN(C)S(=O)(=O)c1ccc(Cl)cc1)OCCCC[C@@H](C)O2,0.107,-0.6,.,1.2
C[C@H]1CN([C@@H](C)CO)C(=O)c2cccc(NS(=O)(=O)c3ccccc3)c2O[C@@H]1CN(C)Cc1ccc(C(F)(F)F)cc1,-0.209,4.7,0.1,-9.0
C[C@H](CO)N1C[C@H](C)[C@@H](CN(C)Cc2ccc(Cl)c(Cl)c2)Oc2c(NC(=O)c3ccc(-c4nccs4)cc3)cccc2C1=O,-0.496,60.0,-9.1,58.1
CCn1c(SCC(=O)Nc2cccc(OC)c2)nnc1-c1ccc(Br)cc1,.,.,-0.8,-3.5

# (list continues)
SMILES,YB-1 expr inh,Hedgehog inh,PD-1 reversal,MITF inh
NCCNc1ccc([N+](=O)[O-])c(Sc2nc3ccccc3[nH]2)c1,.,.,1.0,38.8
CSC(=Nc1c(C)cccc1C)N(C)C,0.506,-2.1,-0.6,-1.3
COc1c2ccoc2nc2c(OC)c(OC[C@@H](O)C(C)(C)O)ccc12,-0.674,-21.9,.,-22.4
O=C(O)c1cccc(CSc2nnc(-c3ccc(Cl)cc3)o2)c1,.,.,2.0,35.6
COc1ccc(NC(=O)Nc2ccc3c(c2)CC(=O)N([C@@H](C)CO)C[C@H](C)[C@H](CN(C)Cc2ccccc2)O3)cc1,-0.343,.,0.6,2.2
